From PubChem BioAssay
KCNQ2 inh: KCNQ2 channel blockers in CHO-K1 cells – cell-based, FluxOR thallium flux, B-score, primary screen (AID 2156) | O88943 | 20 min; active compounds read low; only compounds with negative scores are shown here; some inactives read as strong as hits | B-score at 10 µM | 310,000 tested, 1.1% active;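 active = fluorescence ratio B-score at most minus 3 library SDs, with starting brightness B-score within 2 library SDs, cut at about -5.5 in these data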
Target sequence (O88943 whole entry, looked up): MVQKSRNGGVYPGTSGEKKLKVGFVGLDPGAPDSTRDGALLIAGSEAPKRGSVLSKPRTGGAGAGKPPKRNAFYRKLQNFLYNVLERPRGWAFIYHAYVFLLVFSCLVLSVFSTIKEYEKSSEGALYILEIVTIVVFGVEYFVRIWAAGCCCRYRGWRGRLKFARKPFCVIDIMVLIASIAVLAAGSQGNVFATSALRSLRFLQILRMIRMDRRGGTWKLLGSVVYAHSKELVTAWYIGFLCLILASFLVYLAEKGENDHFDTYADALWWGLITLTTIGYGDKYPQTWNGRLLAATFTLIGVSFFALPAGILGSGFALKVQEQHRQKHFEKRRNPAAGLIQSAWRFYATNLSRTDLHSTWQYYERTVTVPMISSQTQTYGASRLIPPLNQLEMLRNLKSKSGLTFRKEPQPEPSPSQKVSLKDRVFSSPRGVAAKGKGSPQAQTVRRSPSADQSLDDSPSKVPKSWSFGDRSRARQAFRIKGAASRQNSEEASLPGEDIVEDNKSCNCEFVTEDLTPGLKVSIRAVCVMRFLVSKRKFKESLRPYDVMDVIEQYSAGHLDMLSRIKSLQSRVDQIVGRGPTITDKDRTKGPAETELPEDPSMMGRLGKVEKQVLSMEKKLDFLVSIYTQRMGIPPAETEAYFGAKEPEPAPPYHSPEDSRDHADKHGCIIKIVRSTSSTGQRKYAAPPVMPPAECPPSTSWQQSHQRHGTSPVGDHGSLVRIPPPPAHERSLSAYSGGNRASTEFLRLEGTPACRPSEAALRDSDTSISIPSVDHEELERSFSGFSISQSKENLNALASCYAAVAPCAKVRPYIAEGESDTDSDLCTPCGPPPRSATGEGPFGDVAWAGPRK
KCNQ2 inh baseline: second read-out of KCNQ2 inh, no call of its own (marks repeat the call); B-score; measured here: initial fluorescence intensity artifact check;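 brightness before thallium and not channel activity; 0 = typical well and far values either way flag optical interference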
Starred values were filed as active, the others as inactive; i = inactive.

KCNQ2 inh	KCNQ2 inh baseline	canonical_smiles
i	1.45	COc1ccc(Br)cc1/C=N/NC(=O)c1cc(OC)c(OC)c(OC)c1
i	-0.03	O=C(NCc1ccco1)c1cccc(S(=O)(=O)N2CCc3ccccc32)c1
i	1.72	Cc1nc2cc(-c3ccccc3)nn2c(C)c1CCC(=O)NC(C)c1ccc2c(c1)OCCO2 (configuration not stated)
i	-0.36	C=CCOC(=O)C(C#N)c1nc2ccccc2nc1N1CCN(Cc2ccccc2)CC1 (configuration not stated)
i	-2.82	Cc1ccc2ncnc(Nc3ccc(C)c(C)c3)c2c1
i	1.39	Cc1ccc2c(c1)nnn2C1CCN(CC(=O)NNC(=O)c2ccco2)CC1
i	-1.48	COC(=O)C1=C(C(=O)OC)[C@@H]2Nc3ccccc3[C@@]23C[C@@H](C(=O)OC)N(C(=O)c2cccs2)C3=N1
i	1.38	O=C(NCc1ccccn1)C(=O)NCC(c1ccco1)N1CCOCC1 (configuration not stated)
i	-1.56	COC(C(=O)Nc1ccnn1C1CCN(C(=O)c2cccc(F)c2)CC1)c1ccccc1 (configuration not stated)
i	1.25	COc1cc2c(cc1OC)C(C)N(C(=O)c1cc3n(n1)C(C(F)(F)F)CC(c1ccco1)N3)CC2 (configuration not stated)
i	-0.56	Cc1cccc(C)c1NC(=O)CN1C(=O)C(C)Oc2ccccc21 (configuration not stated)
i	0.65	CCOC(=O)c1c(-c2ccccc2)oc2ccc(OCC(=O)NNC(=O)CCC(=O)O)cc12
i	-0.5	Cc1cc(C(=O)O)ccc1N=Cc1c(O)ccc2ccccc12
i	-0.17	Cc1ccccc1NC(=O)C1CCN(c2cc(-c3ccccc3)nc3ncnn23)CC1
i	0.82	CCOc1ccc2nc(NCCNC(=O)Nc3cccc(C)c3)c(C#N)cc2c1
i	0.21	COc1ccc(C(=O)OC(C)CN2CCOCC2)cc1 (configuration not stated)
i	0.06	Cc1c(CCO)c(=O)[nH]n1S(=O)(=O)c1cccc(C(F)(F)F)c1
i	-0.68	COc1ccc(NC(=O)CS(=O)c2cccc(C(F)(F)F)c2)cc1 (configuration not stated)
-9.67*	-1.39*	CCCCOc1cccc(OCCCC)c1C(=O)Nc1cc(C)on1
i	1.15	CCCCCCC1NC(C(=O)O)CS1 (configuration not stated)
i	-0.64	CC(C)(C)C(=O)COC(=O)c1c2c(nc3ccccc13)CCC2
i	0.06	O=C(CCc1nc(-c2ccc(Cl)cc2)no1)NCC1CCCO1 (configuration not stated)
i	1.05	Cc1ccc(-c2nnc(N3CCOCC3)c3ccccc23)cc1S(=O)(=O)NCc1cccnc1
i	0.66	CCOC(=O)c1[nH]c2c(c1-c1ccccc1)C(=O)CC(c1ccccc1)C2 (configuration not stated)
i	0.73	COc1cc(OC)c(C(=O)N2CCN(c3ccccn3)CC2)cc1OC
i	-1.17	CCC(C)(C)NC(=O)CCn1c(-c2ccccc2)cc(C(C)=O)c1C
i	1.03	Cc1cccc(NC(=O)NNC(=O)c2ccc3ccccc3c2)c1
i	-0.21	CCN(CC)S(=O)(=O)c1ccc2[nH]cc(C(=O)NCCCN3CCCCC3)c(=O)c2c1
i	0.16	CC(C)CC(=O)N1CCN(Cc2cccc(Cl)c2)CC1
i	-0.12	CCN(CC)c1ccc(C(=O)OCC(=O)c2ccco2)cc1

One compound at a time, from the list above:
Cc1ccccc1NC(=O)C1CCN(c2cc(-c3ccccc3)nc3ncnn23)CC1 in the list: KCNQ2 inh = i; KCNQ2 inh baseline = -0.17
Cc1cc(C(=O)O)ccc1N=Cc1c(O)ccc2ccccc12 in the list: KCNQ2 inh = i; KCNQ2 inh baseline = -0.5

Following part:
KCNQ2 inh	KCNQ2 inh baseline	canonical_smiles
i	0.75	NCC(=O)NNC(=O)OCC1c2ccccc2-c2ccccc21
i	-0.59	OCC1(Cc2cccc(F)c2)CCN(Cc2cccc3nccnc23)CC1
i	2.52	Cc1ccc(OCC(=O)NC2CCCc3ccccc32)c(C)c1 (configuration not stated)
i	0.27	Cc1[nH]nc2c1C1(CCN(C(=O)OCc3ccccc3)CC1)C(C#N)=C(N)O2
i	-0.52	CCOc1cc2c3c(c1)C(C)CC(C)(C)N3C(=O)C2=O (configuration not stated)
i	-1.48	Cc1ccn(-c2ccc(NC(=O)c3cccs3)cc2)n1
i	-0.94	Cc1noc(C)c1S(=O)(=O)N1CCC(C(=O)N2CCN(c3ccccc3Cl)CC2)CC1
i	3.01	CC(=O)c1ccc(N2CCN(C3CCC(C(C)(C)C)CC3)CC2)cc1 (configuration not stated)
i	2.87	Cc1ccccc1NC(=O)/C(C#N)=C/c1ccc(-c2ccc(Cl)c(C(=O)O)c2)o1
i	1.65	[O-]/C(=C(\C(=S)Nc1ccccc1F)[n+]1ccccc1)c1ccc(-c2ccccc2)cc1
i	0.41	CCOC(=O)c1c(NC(=O)CCl)sc(CN(C)C)c1-c1ccccc1
i	-1.15	Cc1cc(NS(=O)(=O)c2ccc(NC(=O)C(c3ccccc3)c3ccccc3)cc2)no1
i	-1.59	COc1ccc(C2=NN(C(=O)c3ccccc3)C(c3ccc(OC)c(OC)c3)C2)c(O)c1 (configuration not stated)
i	2.21	O=C(Nc1nnc(C23CC4CC(CC(C4)C2)C3)s1)c1ccc(N2C(=O)CCC2=O)cc1
i	0.42	O=C1/C(=C/c2ccc(F)c(F)c2)CSc2sccc21
i	0.43	COCCn1c(SCC(=O)Nc2ccc(OC)c(S(N)(=O)=O)c2)nc2ccccc2c1=O
i	0.58	CCOC(=O)N1CCN(S(=O)(=O)c2c[nH]c(C(=O)OC)c2)CC1
i	2.79	Cc1ccc(C)c(-n2c(SCC(=O)N3CCC(C(=O)O)CC3)nnc2-c2cccc(Cl)c2)c1
i	-0.83	CCOc1ccc2c(c1)nc(SCC(=O)c1ccc(Br)s1)n2C
i	2.93	CCCCNC(=O)COC(=O)c1ccccc1F
i	0.09	Cn1nnnc1SCC(=O)Nc1ccc(S(=O)(=O)N2CCOCC2)cc1
i	-0.11	COC(=O)c1ccc(COC(=O)C(CCSC)NC(=O)COc2ccccc2)cc1 (configuration not stated)
i	-0.18	COc1ccc2c(c1OC)C(=O)OC2Nc1nc(-c2cc3cc(Br)ccc3oc2=O)cs1 (configuration not stated)
i	0.23	CCn1c(C)nc2cc(C(=O)NNS(=O)(=O)c3ccccc3F)ccc21
i	0.12	Cc1ccc(-c2nnc(N3CCN(S(C)(=O)=O)CC3)c3ccccc23)cc1
i	0.35	CC(C)OCCCNC(=O)c1sc(=S)n(C)c1N
i	1.49	COc1ccc(C(=O)N=C2SC3CS(=O)(=O)CC3N2c2ccc(C(C)=O)cc2)cc1 (configuration not stated)
i	1.42	O=C1CCN(Cc2ccccc2)CCN1[C@H](COc1ccccc1)c1ccccc1
i	-0.79	OC(CN1CCN(c2ccccc2)CC1)c1ccc2c(c1)CCN2 (configuration not stated)
i	-0.13	COc1ccccc1N=C1SCC(=O)N1Cc1ccco1

Grouped by structure, the compounds so far with a thiophene ring, fused or not (5)
KCNQ2 inh	KCNQ2 inh baseline	canonical_smiles
i	-1.48	COC(=O)C1=C(C(=O)OC)[C@@H]2Nc3ccccc3[C@@]23C[C@@H](C(=O)OC)N(C(=O)c2cccs2)C3=N1
i	-1.48	Cc1ccn(-c2ccc(NC(=O)c3cccs3)cc2)n1
i	0.41	CCOC(=O)c1c(NC(=O)CCl)sc(CN(C)C)c1-c1ccccc1
i	0.42	O=C1/C(=C/c2ccc(F)c(F)c2)CSc2sccc21
i	-0.83	CCOc1ccc2c(c1)nc(SCC(=O)c1ccc(Br)s1)n2C

Sorted by formula weight (low to high): 3 of the compounds above.
KCNQ2 inh	KCNQ2 inh baseline	canonical_smiles
i	1.03	Cc1cccc(NC(=O)NNC(=O)c2ccc3ccccc3c2)c1
i	3.01	CC(=O)c1ccc(N2CCN(C3CCC(C(C)(C)C)CC3)CC2)cc1 (configuration not stated)
i	0.12	Cc1ccc(-c2nnc(N3CCN(S(C)(=O)=O)CC3)c3ccccc23)cc1

The list continues:
KCNQ2 inh	KCNQ2 inh baseline	canonical_smiles
i	0.7	CC(OC(=O)c1ccc2c(c1)C(=O)N(Cc1ccncc1)C2=O)C(=O)Nc1cccc(Cl)c1Cl (configuration not stated)
i	-0.95	CC(=O)c1cc(C#N)c(NCCCN(C)C)nc1C
i	-0.54	O=C(Nc1ccccc1C(=O)O)c1ccc(CN2C(=O)c3ccccc3C2=O)cc1
i	0.58	CC(=O)N1CCC(N(C(=O)Nc2ccc(C)c(C)c2)C2CCCC2)CC1
i	0.12	CC(=O)Nc1c2c(nn1-c1ccccc1C)CSC2
i	-0.69	CCOc1cc(/C=N/N=C2/NC(=O)C(CC(=O)O)S2)ccc1OCc1ccc(Cl)cc1Cl (configuration not stated)
i	-0.16	Fc1ccccc1NC(=S)N1CCCCC1
i	0.08	CC(=O)NC1(c2ccc(F)cc2)CCN(C(=O)c2c(F)cccc2F)CC1
i	-0.67	O=C(COc1cccnc1[N+](=O)[O-])NCCc1ccccc1
i	-0.91	O=S(=O)(c1ccc(F)cc1)N1CCC(O)(c2ccc3c(c2)OCO3)CC1
i	-0.8	COCc1cc(=O)[nH]c2cc(NC(=O)C(C)(C)CCl)c(C)cc12
i	-0.65	Cc1cc(C)c(S(=O)(=O)NC(C)C)c(C)c1-n1cnnn1
i	-2.29	Cc1ccc(C)c(NC(=O)NNC(=O)c2cc3ccccc3cc2O)c1
i	1.13	Cc1ccc2nc(-c3ccc(S(=O)(=O)N4CCOCC4)cc3)cn2c1
i	0.31	CCC1(c2ccc(F)cc2)NC(=O)N(CC(=O)NCC(=O)Nc2cccc(C)c2C)C1=O (configuration not stated)
i	5.82	CCN1CCc2c(sc3c2c(NCc2ccco2)nc2nnnn23)C1
i	2.77	CCOc1cc(Cl)c(S(=O)(=O)NCCCn2ccnc2)cc1Cl
i	-0.13	CCC(CC)NC(=O)COC(=O)c1cc(SC)ccc1Cl
i	1.8	CCOC(=O)C(NC(=O)c1cccc(Cl)c1)(Nc1nnc(C)s1)C(F)(F)F (configuration not stated)
i	1.62	O=C1COc2ccc(C(=O)NCc3ccco3)cc2N1
i	0.07	O=C1/C(=C\c2ccco2)SC(=S)N1C1CCCCC1
i	0.17	N=c1sccn1CC(=O)Nc1ccc(S(N)(=O)=O)cc1
i	-1.09	CCCCn1c(N)c(N(CCOC)C(=O)c2ccc(N(C)S(=O)(=O)c3ccc(C)cc3)cc2)c(=O)[nH]c1=O
i	-1.64	O=c1[nH]c2ccc(NS(=O)(=O)c3ccc4ccccc4c3)cc2[nH]1
i	1.02	Cc1noc(C)c1CN1C(=O)c2ccccc2C1=O
i	0.05	C=CCn1c(COc2ccc(F)cc2)nnc1SCC(=O)N1CC(=O)Nc2ccccc21
i	-0.45	O=[N+]([O-])c1ccc(Oc2cccc3cccnc23)c(Cl)c1
i	0.87	C=CCc1cc(C)ccc1OCCOCCC(C(=O)OCC)C(=O)OCC
i	0.28	COC(=O)c1c(C)oc2ccc(N(C(=O)c3ccncc3)S(=O)(=O)c3ccc(C)cc3C)cc12
i	-0.34	Cc1cccc(C(=O)OCC(=O)NC(C)CCc2ccccc2)c1 (configuration not stated)
i	0.32	COc1ccc(CN2CCNC(=O)C2CC(=O)N(C)CCC2CCOCC2)cc1OC (configuration not stated)
i	-1.53	Cc1cc(NC(=O)CCC(=O)N(C2CC2)C(C(=O)NC(C)(C)C)c2ccccc2Cl)no1 (configuration not stated)
i	0.54	O=C(COC(=O)c1cc(Cl)ccc1Cl)Nc1ccc2[nH]c(=O)[nH]c2c1
i	-0.27	O=c1c2ccccc2nc(SCc2ccc(F)cc2Cl)n1CCCN1CCOCC1
i	0.92	COc1cc(Br)ccc1C1CC(=O)C(C)C(c2ccc(Br)cc2OC)N1 (configuration not stated)
i	-0.62	CN(C)c1nc(-c2ccccn2)nnc1-c1ccccc1
i	-1.21	OC(CNCCc1ccccc1)COc1ccc(OCC(O)CNCCc2ccccc2)cc1 (configuration not stated)
i	0.55	Cc1cc(C)nc(N2CCCC(C(=O)Nc3nnc(C(C)C)s3)C2)n1 (configuration not stated)
i	0.7	O=C(O)c1ccccc1C(=O)N1CCN(C(=O)c2ccccc2Cl)CC1
i	0.95	Cc1ccc2cc(CN(CC3CCCO3)C(=O)Nc3ccccc3F)c3nnnn3c2c1 (configuration not stated)
i	-0.18	O=C(NC1CCCN(Cc2ccc(Cl)cc2)C1)c1ccccc1C(F)(F)F (configuration not stated)
i	-1.53	Cc1cccc2sc(N(CCCN(C)C)C(=O)c3nc4ccccc4s3)nc12
i	-0.53	Cc1ccc(NC2CCCN(C(=O)c3ccoc3)C2)cc1C (configuration not stated)
i	0.12	CC(CC(=O)Nc1cccc(F)c1)S(=O)(=O)c1ccc2c(c1)NC(=O)CO2 (configuration not stated)
i	0.83	C=CCc1cc(C)ccc1OCCn1ccnc1
i	-0.34	O=C(Nc1nccs1)C1CC(=O)N(c2ccc(Cl)cc2)C1 (configuration not stated)
i	-2.43	O=C(/C=C/c1ccccc1)Oc1ccccc1C(=S)N1CCOCC1
i	3.17	O=C(CCN1C(=O)C2C3C=CC(C3)C2C1=O)NCc1cccnc1 (configuration not stated)
i	-0.15	COc1ccccc1CNC(=O)C(=O)NCCC1CCCCN1S(=O)(=O)c1ccc(C)cc1 (configuration not stated)
i	-0.21	CN1CC(C(=O)O)Cc2c1ccc1ccccc21 (configuration not stated)
i	-2.22	O=C1c2ccccc2C(=O)C1c1ccccn1

Only part of the results is shown, so the mix of outcomes need not match the whole.
